# Screens: PubChem BioAssay, National Center for Advancing Translational Sciences (NCATS)
# Vaccinia mCherry: vaccinia inhibition (mCherry reporter); Vaccinia virus mCherry reporter infection, fluorescence; about a quarter of the inactives have no number; Potency, µM (titrated, usually from 36.5 µM), for the others: at the top dose activity change, negative = inhibition, actives largely listed as inhibitors; 310,000 compounds, 0.63% hits; active = well fitted inhibition curve with a large enough effect; inconclusive = small, poorly fitted or top-dose-only effect; inactive = no such curve, though single readings can be large or run the other way; tested in A549 cells; also: nearly all actives have a fitted effect of over 35% in size; inactives centre near -10
# Vaccinia Venus: inhibitors of vaccinia virus (Venus reporter); Vaccinia virus Venus reporter expression, fluorescence; Potency, µM (series often up to 36.5 µM), inactives show top-dose activity change, negative = inhibition, most hits filed as inhibitors; 330,000 compounds, 0.46% hits; AID 720580; active means well fitted inhibition curve with a large enough effect; inconclusive means small, poorly fitted or top-dose-only effect; inactive means no such curve, though single readings can be large or run the other way; tested in A549 cells; also: nearly all actives have a fitted effect of over 30% in size; inactives centre near -10
# * hit, by the source's call; i = inactive; ? = inconclusive; nt = no result given; & = joins results of further samples; [ ] = another dose, or the depositor's remark. % is scaled to controls: 0 for no effect and ±100 for the full control effect; potency is read from the fitted curve at half-maximal effect.
SMILES,Vaccinia mCherry,Vaccinia Venus
CC1(C)CC(n2[nH]c(=O)c3c2NC(=O)CSC3c2ccc(F)cc2)CCO1 (centres undefined),nt,-17%
COc1ccc(CCN2C(=O)c3ccccc3C2c2nnnn2Cc2ccccc2)cc1OC (centres undefined),-7%,-11%
CC1CCN(C(=O)C2CCCN(S(C)(=O)=O)C2)CC1 (centres undefined),-13%,-11%
O=C(Nc1cccc2ccccc12)OCc1cncs1,-1%,-7%
O=C(O)c1cc(-n2cccc2)ccc1N1CCOCC1,-12%,-16%
COc1cc(/C=C2\CCc3ccccc3C2=O)cc(OC)c1OC,?,-25%
CCCCN1CC[C@H]2C=CC[C@@H](C(=O)Nc3ccc(Cl)c(C(F)(F)F)c3)[C@H]2C1=O,-22%,?
CCOC(=O)NC(=O)/C(C#N)=C\Nc1sccc1C(=O)OC,i,-4%
C/C(CCc1ccco1)=N/NC(=O)CCC(=O)Nc1ccc(Br)cc1,-5%,-19%
CCN1CCCCC(=N/O)/C(=N/O)CCCC1,i,-7%
O=C(Cn1cnc2ccccc21)N/N=C/c1ccccc1[N+](=O)[O-],-12%,-15%
O=C(NCCCN1CCOCC1)C(=O)NCCc1ccccc1,5%,0%
CC(C)c1ccc(C(=O)NNC(=O)c2ccncc2)cc1,-11%,-7%
CCOC(=O)C1=C(c2ccccc2)O/C(=C(/C(=O)OC)C(F)(F)F)S1,-2%,-2%
CCOP(=O)(OCC)C(NC(C)=O)C(Cl)(Cl)Cl (centres undefined),-15%,-8%
CCCCNC(=O)C1(C)CCCCN1C(=O)c1ccc2c(c1)CCO2 (centres undefined),2%,-4%
CCOC(=O)N1CCN(C(=O)c2[nH]c(C(F)(F)F)nc2-c2ccccc2)CC1,1%,-16%
O=C(Cc1ccccc1)CC(CC(=O)c1ccccc1)c1ccccc1 (centres undefined),-6%,-15%
COc1ccc(C(CNC(=O)CNC(=O)c2cccc(C)c2)N2CCCCC2)cc1 (centres undefined),i,-8%
Cc1c(C(=O)N2CCOCC2)cc(C(C)(C)C)n1-c1ccccc1,i[7.34 µM],3%[7.34 µM]

# Some of the entries so far, field by field.
O=C(Cc1ccccc1)CC(CC(=O)c1ccccc1)c1ccccc1 (centres undefined)
- Vaccinia mCherry: -6%
- Vaccinia Venus: -15%

COc1ccc(C(CNC(=O)CNC(=O)c2cccc(C)c2)N2CCCCC2)cc1 (centres undefined)
- Vaccinia mCherry: i
- Vaccinia Venus: -8%

Cc1c(C(=O)N2CCOCC2)cc(C(C)(C)C)n1-c1ccccc1
- Vaccinia mCherry: i[7.34 µM]
- Vaccinia Venus: 3%[7.34 µM]

# Going on with the list.
SMILES,Vaccinia mCherry,Vaccinia Venus
CCOC(=O)N1CCC(N(CCN(C)C)C(=S)Nc2cccc(OC)c2)CC1,-21%,-5%
Cc1ccc(-n2nnnc2C(Cl)(Cl)c2nnnn2-c2ccc(C)cc2)cc1,-18%,-10%
CCn1c(-c2cc(-c3ccccc3OC)nc3ccccc23)n[nH]c1=S,2%,-5%
O=[N+]([O-])c1nn(-c2cccc(Cl)c2)n(O)c1=NCc1cccnc1,i,-7%
CCN(CCNCC(O)COCc1ccc(Cl)cc1)c1cccc(C)c1 (centres undefined),?,-28%
COc1cccc(C(=O)N2CCC(C(=O)NCc3ccc(C)cc3)CC2)c1,-5%,-21%
CCOc1ccccc1N(C(=O)c1ccco1)C(C(=O)NC1CCCC1)c1cccs1 (centres undefined),-16%,-1%
CC(C)CN(CC(C)C)C(=O)CC(=O)NC(=O)c1ccc(Cl)cc1,-7%,-3%
CCOc1ccc(NC(=O)c2cc(=O)c3ccc(C)c(C)c3o2)cc1,-15%,-24%
CC(Oc1ccccc1)C(=O)Nc1ccc(C(=O)OCc2cc(=O)n3ccsc3n2)cc1 (centres undefined),-8%,-3%
CCCCCCCCCC[n+]1cccc2cc(Br)ccc21,?,?
Cc1ccc(C)c(NS(=O)(=O)c2ccc(OCC(=O)N3CCOCC3)cc2)c1,nt,-22%
O=C(C1CC(=O)N(c2ccc(F)cc2)C1)N1CCCCC1 (centres undefined),-3%,6%
COc1ccc(-n2nc(C(=O)Nc3cccc(C)n3)c3c4ccccc4n(C)c3c2=O)cc1Cl,5%,-6%
Cc1nn(C2CCS(=O)(=O)C2)c(Cl)c1/C=C/C(=O)OCC(=O)Nc1ccccc1OC(F)F (centres undefined),-15%[1.46 µM],-16%
CCCCNC(=O)CSc1nc(-c2ccc(OC)cc2)cc(C(F)(F)F)n1,-8%,-2%
COc1cccc(Cn2nnc(C(=O)NCc3ccc(F)cc3)c2N)c1,-5%,1%
CCOC(=O)c1cccc(NS(=O)(=O)c2c(C)nc3sc(C)cn3c2=O)c1,-8%,-10%
Cc1ccc(-c2n[nH]c(=S)n2/N=C/C=C\c2ccccc2[N+](=O)[O-])cc1,i,2%
C=CCOC(=O)C1=C(C)NC(SCC(=O)Nc2nccs2)=C(C#N)C1c1ccc(Cl)cc1 (centres undefined),-26%,-17%
COc1cccc(CNC(=O)c2nn(C)c3c2CSc2ccccc2-3)c1,-19%,-13%
CCOC(=O)c1cc2cc(OC)ccc2[nH]1,nt,-15%
O=C(CN1CCC(c2nc3ccccc3[nH]2)CC1)NCc1ccc2c(c1)OCO2,-18%,-9%
Cc1ccc(NC(=O)[C@H](Cc2c[nH]c3ccccc23)NC(=O)[C@@H]2Cc3ccccc3CN2)c(C)c1,?,20%
COc1cc(NC(=O)c2cc(-c3cccc(Cl)c3)on2)c(OC)cc1Cl,-13%,?
Cc1cc(C)n(-c2ccc(Cl)c(Cl)c2)n1,i,-16%
O=C(c1cc(-c2cccc(Cl)c2)nc2ccccc12)N1CCCC1,-5%,-13%
Cc1ccc(S(=O)(=O)NCC2CCCO2)cc1[N+](=O)[O-] (centres undefined),-14%,-16%
O=C(Nc1ccnn1C1CCN(Cc2ccc(CO)o2)CC1)c1ccccc1Cl,i,-11%
COc1ccc(CCN2C(=O)C(O)=C(C(=O)c3ccco3)C2c2cccs2)cc1OC (centres undefined),-5%,8%
CC(=O)Nc1ccc(C2=NNC(=NCC3CCCO3)SC2)cc1 (centres undefined),i,-6%
O=C(NCc1ccco1)c1sc2cc(F)ccc2c1Cl,i,-11%
Cc1ccc(S(=O)(=O)N(CC(=O)NCc2ccco2)c2ccccc2C)cc1,-11%,-1%
Cc1cnc(C(=O)NCc2ccc(Cl)cc2Cl)cn1,i,2%
COc1ccc(-c2cc(C(C)=O)c(C)n2CCC(=O)NC2CCCCC2)cc1,-15%,-6%
Clc1ccc2c(N3CCOCC3)ccnc2c1,-5%,-21%
CCC1(CC)NC(=O)N(CC(=O)OCC(=O)Nc2sccc2C#N)C1=O,-1%,0%
CCOc1ccc(CC(C(N)=O)C(N)=O)cc1,i,-8%
CCOC(=O)c1sc(NC(=O)C(C)Sc2nc(-c3ccccc3)cc(C(F)(F)F)n2)c(C(=O)OC)c1C (centres undefined),-3%,-15%
CN(CCC#N)C(=O)COC(=O)c1ccc2[nH]c3c(c2c1)CCCC3,-11%,2%
CC(C)CNc1ncnc2c1nnn2C,i,-14%
Cc1ccc(OC(C)C(=O)Nc2nonc2-c2ccc(Br)cc2)cc1C (centres undefined),-8%,9%
CCCN(Cc1ccccc1)S(=O)(=O)c1ccc(N2C(=O)CCC2=O)cc1,nt,-19%
CCOC(=O)c1sc2ncn(CC(=O)Nc3ccc(N(C)C)cc3)c(=O)c2c1C,-3%,-5%
CCC(C)C(NC(=O)C(C)NC(=O)CNC(=O)CNC(=O)OCc1ccccc1)C(=O)OC (centres undefined),nt,-2%
CCOc1ccc(N2C(=O)CC(NCC3CCCO3)C2=O)cc1 (centres undefined),-3%,-11%
CCOC(=O)C1CCN(C(=O)Cn2nc(C)n3c(cc4cc(C)ccc43)c2=O)CC1,-9%&-8%,-23%&-14%
O=C(COc1ccc(-n2cnnn2)cc1)Nc1ccccc1Cl,-13%,-1%
Cc1cc(C(=O)OCC(=O)NCc2cccs2)c2ccccc2n1,-5%,-19%
Cc1cc(C)cc(N(C(C)C(=O)N2CCCC2)S(C)(=O)=O)c1 (centres undefined),i,-11%
COc1ccc(OCC(=O)NNC(=O)c2nn(C)c(=O)c3ccccc23)cc1,-5%,1%
COc1ccc(C(=O)N(C)Cc2ccc(C)o2)cc1OC1CCN(C(C)C)CC1,-5%,-10%
Cc1ccc(C2CC(c3ccc(NS(C)(=O)=O)cc3)=NN2C(=O)c2ccco2)cc1 (centres undefined),-5%,-22%
CCOc1ccccc1Oc1c(C)oc2c(CN3CCN(CCO)CC3)c(O)ccc2c1=O,-1%,-6%
O=C1[C@H](Cc2ccccc2)NC/C=C\C[C@H](c2ccc(Cl)cc2)N1Cc1ccc(Cl)cc1,-3%,-21%
CNC(=O)N(O)C1N(/N=C/c2cc(Br)ccc2O)C(=S)SC1(C)C (centres undefined),-6%,-21%
COc1ccc(NC(=O)c2cncc(Br)c2)cc1S(N)(=O)=O,-14%,-6%
CCSc1ccc(NC(=O)c2cccnc2)cc1,-12%,-11%
Cc1ccccc1NC(=O)c1cccc(Cn2cc(Br)c([N+](=O)[O-])n2)c1,-29%,-18%
CC1Oc2ccccc2OC1(O)c1ccccn1 (centres undefined),-12%,2%
# New compounds follow
SMILES,Vaccinia mCherry,Vaccinia Venus
O=C1CC(SC(=Nc2ccccc2)Nc2ccccc2)C(=O)N1c1ccc(Cl)c(Cl)c1 (centres undefined),-13%,-25%
COc1ccc(NC(=O)Cn2c(=O)c(-c3cc(C)ccc3NC(C)=O)nc3ccccc32)c(OC)c1,-9%,-10%
OCCN(/C=N/c1nc(-c2ccc(Br)cc2)cs1)CCO,-3%,-24%
Cc1ccc(CSc2nc3cccnc3n2Cc2nc(-c3ccccc3F)oc2C)cc1,-27%,-24%
CC(=O)Nc1cc2c3ccccc3n(C)c2cc1[N+](=O)[O-],i,0%
O=C(NCc1ccccn1)c1ccc(/C=N/O)nc1,nt,-15%
Cc1cc(-c2ccnc(-n3ncc(C(=O)NCC4CCCN(C)C4)c3C3CC3)n2)c(C)s1 (centres undefined),-6%,-2%
COc1ccc(C(=O)c2cnc3ccc(C)cc3c2S(=O)(=O)c2ccccc2)cc1,-27%,-11%
Cn1nnc(NC(=O)/C=C/c2ccco2)n1,i,7%
Cc1ccc(NC(=S)NC(=O)C2CCCCC2)c(Br)c1,-28%,-16%
Cc1c(/C=N/NC(=O)c2ccc(O)cc2)c2ccccn2c1C(=O)c1ccc(F)cc1,-26%,?
O=C(Cn1nc(-c2cccc(Cl)c2)ccc1=O)Nc1ccc(C(=O)NC2CC2)cc1,-10%,1%
Cc1ccc(NC(=O)COC(=O)CSCC(=O)Nc2cc(C)on2)c(C)c1,i,-12%
COc1cccc(/C=C/C(=O)OCC(=O)Nc2ccc(Cl)c(S(=O)(=O)N(C)C)c2)c1,-2%,-7%
O=C(COC(=O)c1ccccc1Oc1ccccc1)NCc1ccco1,-9%,-1%
Cc1cc(C)cc(NC(=O)Nc2ccc(NC(=O)c3ccccc3O)cc2)c1,-11%,-29%
NNc1nc(-c2ccccc2)c2ccccc2n1,-1%,-5%
Cc1c(C(=O)Oc2ccc(F)cc2)sc2ncn(Cc3cccc(F)c3)c(=O)c12,-7%,-8%
Cc1ccccc1C=Nc1ccccc1C(N)=O,?,-15%
COCc1nc2ccccc2n1Cc1ccccc1,-12%,-5%
CCOc1ccc(-c2nnc(SCC(=O)N(CC)c3cccc(C)c3)o2)cc1,-27%,-22%
CCOC(=O)CNC(=S)N(Cc1cccs1)C1CCCCC1,-12%,1%
N#C/C(=C\c1ccccc1C(=O)O)c1nc2ccccc2[nH]1,-10%,-13%
CCCCC1Cc2[nH]c(=S)[nH]c(=O)c2C(c2cccc3ccccc23)O1 (centres undefined),8%,-4%
CCCN(C(=O)c1nn(-c2ccc(OC)cc2)c(=O)c2c1c1ccccc1n2C)c1ccc(CC)cc1,-12%,-5%
COc1ccccc1Cn1c(CNS(=O)(=O)c2ccccc2Cl)nc2cccnc21,-9%,-6%
CCn1c(C(=O)OC)cc2c1ccn2-c1ccc(F)cc1,-11%,-6%

# Structural class: the compounds so far with fluorine (14)
SMILES,Vaccinia mCherry,Vaccinia Venus
CC1(C)CC(n2[nH]c(=O)c3c2NC(=O)CSC3c2ccc(F)cc2)CCO1 (centres undefined),nt,-17%
CCCCN1CC[C@H]2C=CC[C@@H](C(=O)Nc3ccc(Cl)c(C(F)(F)F)c3)[C@H]2C1=O,-22%,?
CCOC(=O)C1=C(c2ccccc2)O/C(=C(/C(=O)OC)C(F)(F)F)S1,-2%,-2%
CCOC(=O)N1CCN(C(=O)c2[nH]c(C(F)(F)F)nc2-c2ccccc2)CC1,1%,-16%
O=C(C1CC(=O)N(c2ccc(F)cc2)C1)N1CCCCC1 (centres undefined),-3%,6%
Cc1nn(C2CCS(=O)(=O)C2)c(Cl)c1/C=C/C(=O)OCC(=O)Nc1ccccc1OC(F)F (centres undefined),-15%[1.46 µM],-16%
CCCCNC(=O)CSc1nc(-c2ccc(OC)cc2)cc(C(F)(F)F)n1,-8%,-2%
COc1cccc(Cn2nnc(C(=O)NCc3ccc(F)cc3)c2N)c1,-5%,1%
O=C(NCc1ccco1)c1sc2cc(F)ccc2c1Cl,i,-11%
CCOC(=O)c1sc(NC(=O)C(C)Sc2nc(-c3ccccc3)cc(C(F)(F)F)n2)c(C(=O)OC)c1C (centres undefined),-3%,-15%
Cc1ccc(CSc2nc3cccnc3n2Cc2nc(-c3ccccc3F)oc2C)cc1,-27%,-24%
Cc1c(/C=N/NC(=O)c2ccc(O)cc2)c2ccccn2c1C(=O)c1ccc(F)cc1,-26%,?
Cc1c(C(=O)Oc2ccc(F)cc2)sc2ncn(Cc3cccc(F)c3)c(=O)c12,-7%,-8%
CCn1c(C(=O)OC)cc2c1ccn2-c1ccc(F)cc1,-11%,-6%
